GIRK2 act – activators of human GIRK2 potassium channels; P48051; HEK293-GIRK2 thallium flux, Thallos fluorescence; calls only for hits at 25 µM; actives 0.05% (n = 63,000); AID 1259325;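 active = among the strongest 0.2% of first-round signals and kept after retests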;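 note: first round at about 10 µM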
Target sequence (P48051 whole entry, looked up): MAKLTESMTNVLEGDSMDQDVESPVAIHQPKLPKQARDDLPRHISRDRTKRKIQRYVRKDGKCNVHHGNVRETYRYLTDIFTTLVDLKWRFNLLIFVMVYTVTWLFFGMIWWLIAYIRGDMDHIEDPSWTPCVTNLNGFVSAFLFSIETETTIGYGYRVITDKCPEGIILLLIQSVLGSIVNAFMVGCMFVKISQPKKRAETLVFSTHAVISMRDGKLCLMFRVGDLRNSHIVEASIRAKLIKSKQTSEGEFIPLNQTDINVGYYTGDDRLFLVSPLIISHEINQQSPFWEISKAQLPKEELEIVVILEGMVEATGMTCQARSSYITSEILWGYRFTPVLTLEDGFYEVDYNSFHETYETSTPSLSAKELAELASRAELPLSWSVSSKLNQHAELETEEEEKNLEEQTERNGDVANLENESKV
Calls only; i = inactive. This is a subset (hit frequency here may not be typical).

Compound | GIRK2 act
COc1ccc(N2C(=O)N(c3ccc(C)c(C)c3)C3CS(=O)(=O)CC32)cc1 (centres undefined) | i
COc1ccc(Cl)cc1NCCn1c(C)c(C)n2c3c(=O)[nH]c(=O)n(C)c3nc12 | i
COc1cccc(NC(=O)Nc2ccc3c(c2)C(=O)NCC3)c1OC | i
CNC(=O)/C(C#N)=C1/SC(Cc2ccc(OC)cc2)C(=O)N1c1ccccc1Cl (centres undefined) | i
COc1ccc(-c2ccc(C(=O)N3CCCc4ccccc43)o2)c([N+](=O)[O-])c1 | i
CCCCC[C@H](O)/C=C/[C@H]1[C@H](O)CC(=O)[C@@H]1C/C=C\CCCC(=O)O | i
Cc1cc(C(=O)NCCC2CCCCN2S(=O)(=O)c2cccs2)c(C)o1 (centres undefined) | i
Cc1ccc(Cn2c(SCC(=O)c3ccc([N+](=O)[O-])cc3)nc3c2c(=O)n(C)c(=O)n3C)cc1 | i
COc1ccc(S(=O)(=O)NCCC(O)c2ccoc2)c(C)c1 (centres undefined) | i
COc1ccc(C)cc1NC(=O)Cn1c(N2CCCC2)nc(C)cc1=O | i
Fc1ccc(Nc2ncnc3[nH]ncc23)cc1F | i
COc1cc2nc(SCC(=O)Nc3c(C)cccc3C)n3nc(C)nc3c2cc1OC | i
COc1cccc(NC(=O)Cn2cccc(S(=O)(=O)N3CCC(C)CC3)c2=O)c1 | i
COc1ccc(C2CC3C4NN=C(SCC(=O)Nc5ccc6c(c5)OCO6)N4C=CN3N2)cc1 (centres undefined) | i
COc1ccc(NC(=O)Cn2c(C)cc(C)c(C#N)c2=O)c(OC)c1 | i
CCNC(=O)c1cn(-c2ccc(SCC(=O)Nc3ccc4c(c3)OCCO4)nn2)cn1 | i
CCOc1ccc(CCNC(=O)c2nnn(CC(=O)NCc3ccc(C)cc3)c2N)cc1OCC | i
COc1ccc(C(=O)COC(=O)c2ccc3ccccc3n2)cc1OC | i
O=C(NCC1CCN(Cc2cccs2)CC1)C1(c2ccccc2)CCOCC1 | i
COc1cc2[nH]c3c(=O)n(CCC(=O)N4CCC(C(N)=O)CC4)cnc3c2cc1OC | i
CNC(=O)CSc1ncc(-c2cccc([N+](=O)[O-])c2)n1-c1ccc(OC(F)(F)F)cc1 | i
Cc1nc2sc(C)c(C)n2c(=O)c1NC(=O)CC(c1ccccc1)c1ccccc1 | i
Cc1cc(N2C(=O)CCS2(=O)=O)ccc1S(=O)(=O)N1CCc2ccccc21 | i
COc1ccc(NC(=O)C(=O)NCC2CCN(C(C)C)CC2)cc1Cl | i
COCCNC(=O)COc1cccc2c1CCNC2=O | i

By substructure, the entries above containing fluorine (two)
Compound | GIRK2 act
Fc1ccc(Nc2ncnc3[nH]ncc23)cc1F | i
CNC(=O)CSc1ncc(-c2cccc([N+](=O)[O-])c2)n1-c1ccc(OC(F)(F)F)cc1 | i

Further entries
Compound | GIRK2 act
O=C(Nc1ccc2c(c1)OCO2)C1CCCN(c2ccc(-c3ccco3)nn2)C1 (centres undefined) | i
COc1ccc(S(=O)(=O)Nc2cnc(Oc3ccccc3F)nc2)cc1C | i
CC1CCCN(c2nc3ncnc(SCC(=O)N4CCN(c5ccccc5F)CC4)c3s2)C1 (centres undefined) | i
COc1cccc(-c2csc(-n3nc(C)cc3NC(=O)c3c(F)cccc3F)n2)c1 | i
COC(=O)c1ccc(NC(=O)CCc2csc(NC(=O)NC3CCCCC3)n2)cc1 | i
O=C1CC(NC(=O)c2ccc(=O)[nH]c2)CN1 (centres undefined) | i
CC(C)(S)C(N)C(=O)O (centres undefined) | i
CN(C)C(CNS(=O)(=O)c1ccc(Br)s1)c1ccc2c(c1)CCO2 (centres undefined) | i
COc1ccc(-c2noc(-c3ccc(=O)n(CC(=O)Nc4ccc(C)cc4C)c3)n2)cc1 | i
COc1ccc(/C=C/C(=O)Nc2ccc3c(=O)c4ccccc4oc3c2)cc1OC | i
CS(=O)(=O)N1CCCSCC1CN1CCCCC1 (centres undefined) | i
COc1cccc(CNC(=O)C2CCN(c3c(C#N)cnc4ccc(F)cc34)CC2)c1 | i
O=C(O)C1=COC(OC2OC(CO)C(O)C(O)C2O)C2C(CO)C(OC(=O)c3ccccc3)C(OC(=O)c3ccccc3)C12 (centres undefined) | i
COc1ccc(CC(=O)NCCCS(=O)(=O)N2CCN(c3ncccn3)CC2)cc1 | i
COc1ccc(NC(=O)Cn2cnc3c([nH]c4cc(OC)c(OC)cc43)c2=O)cc1OC | i
COc1ccc(/C=C/C(=O)O[C@H]2[C@@H]3C=CO[C@@H](O[C@@H]4O[C@H](CO)[C@@H](O)[C@H](O)[C@H]4O)[C@@H]3[C@@]3(CO)O[C@@H]23)cc1O | i
Cc1ccc(NC(=O)Nc2nccn(-c3ccc(Br)cc3)c2=O)cc1C | i
COCCn1c(-c2nc(C(=O)N3CCCC3)cs2)cc2ccccc21 | i
O=C(Cc1ccc(F)cc1)N1CCC(Oc2ncccc2Cl)CC1 | i
Cc1ccc(NC(=O)Nc2ccc3c(c2)N(C)C(=O)C(C)(C)CO3)cc1 | i
CC(C)(C)c1ccc(OCCCC(=O)Nc2ccc3c(c2)OCCO3)cc1 | i
O=c1c2cnn(CCO)c2ncn1Cc1ccc(Br)cc1 | i
CN(CC(=O)N=c1sc2cc3c(cc2n1C)OCCO3)S(C)(=O)=O | i
CCOc1ccc(-c2noc(CSc3nc4ccsc4c(=O)n3Cc3ccccc3)n2)cc1 | i
COc1ccc(C)cc1Nc1nnc(Cc2ccc(C)cc2)c(=O)[nH]1 | i
O=C(NCCOc1cc(N2CCCCC2)ncn1)Nc1ccccc1Cl | i
COCCc1nnc(NC(=O)CSCc2ccccc2)o1 | i
COc1ccc2c(c1)c(CC(=O)Nc1ccc(F)cc1)c(C(F)(F)F)n2C(=O)c1ccc(Cl)cc1 | i
O=S(=O)(c1ccc2nncn2c1)N(Cc1cc(F)cc(F)c1)c1cc(F)cc(F)c1 | i
COc1ccc(-n2nnc3c(=O)n(Cc4nc(-c5ccc(C)cc5)no4)cnc32)cc1 | i
Cc1ccc(S(=O)(=O)N(C)c2ccc(OCC(=O)Nc3ccccc3Cl)cc2)cc1 | i
Cc1ccc(S(=O)(=O)NCCN2CCN(c3ccccc3F)CC2)s1 | i
COc1ccccc1-n1ccnc(NCc2ccc(C)cc2)c1=O | i
CCn1c(N2CCN(CC(=O)OC)CC2)nc2c1c(=O)[nH]c(=O)n2C | i
Cc1ccc2c(Nc3ccccc3)c(C(=O)N3CCSCC3)cnc2n1 | i
Cn1cccc1C(CNC(=O)c1cc2ccccc2oc1=O)N1CCCCCC1 (centres undefined) | i
O=C(Cc1ccccc1Br)NC1(c2nc(-c3ccncc3)no2)CCCCC1 | i
CCOc1ccccc1C(=O)N1CCC(Oc2ccc(C(F)(F)F)cn2)CC1 | i
O=C(COc1ccc(-n2cccn2)nn1)N1CCN(c2ncccn2)CC1 | i
COC(=O)Nc1nc2ccc(C(=O)c3ccc(F)cc3)cc2[nH]1 | i
CCOc1ccc(-c2nc(CN(c3ccccc3C)S(=O)(=O)c3cccs3)c(C)o2)cc1OC | i
COc1ccccc1NC(=O)Cn1nc2c(SC3CCCCC3)nccn2c1=O | i
COC(=O)c1cc(Nc2cc(OC)cc(OC)c2)c2ccccc2n1 | i
O=C(NCCCn1ccnc1-c1ccccc1)NCc1ccc(F)cc1 | i
Cc1cn2c3c(=O)n(Cc4c(F)cccc4Cl)c(=O)n(C)c3nc2n1-c1ccc(C(N)=O)cc1 | i
CCCNC(=O)CSc1cc(NCc2ccc(Cl)cc2)ncn1 | i
Cc1ccccc1CNC(=O)c1cnn(-c2cc(-c3nc(C(C)C)no3)ccn2)c1C | i
Cc1nccn1-c1ccc(=O)n(CCNS(=O)(=O)c2cccc(Cl)c2)n1 | i
CCn1ccc(C(=O)NC2CCN(c3ccc(-c4ccccc4F)nn3)C2)n1 (centres undefined) | i
Cn1cc(C2=C(c3cn(CCCCCO)c4ccccc34)C(=O)NC2=O)c2ccccc21 | i

Remaining list, next part:
Compound | GIRK2 act
CCN(CC)Cc1ccc(Nc2nccc(-c3cnn4ncccc34)n2)cc1 | i
CCOc1ccc(-c2noc(-c3c[nH]c4ccccc4c3=O)n2)cc1OC | i
Cc1ccc(NC(=O)C2CCCN(c3ccc(-n4cccn4)nn3)C2)c(C)c1 (centres undefined) | i
Cn1cc(C(=O)N2CCC(C(=O)NCC(F)(F)F)CC2)nn1 | i
CC(C)CNC(=O)c1ccc2c(=O)n(C(C)C)c3nn(Cc4cccc(Cl)c4)c(=O)n3c2c1 | i
O=C(c1cncc(Br)c1)N1CCCC(COCc2ccccc2)C1 (centres undefined) | i
Cc1nc2c(-c3ccccc3)c(C)nn2c(SCC(N)=O)c1Cc1ccccc1 | i
CCOC(=O)C1=C(CCl)NC(=O)NC1c1ccccc1O (centres undefined) | i
CCCNC(=O)C1CCCN(c2nc3ccsc3c(=O)n2-c2ccc(C)cc2)C1 (centres undefined) | i
O=S(=O)(/C=C/c1ccccc1)NCC(O)c1ccoc1 (centres undefined) | i
CC(Oc1ccccc1)C(=O)N(CCc1cccs1)Cc1ccoc1 (centres undefined) | i
COc1ccc(-c2cn3cccnc3n2)cc1NC(=O)c1c(-c2ccccc2Cl)noc1C | i
O=C(Nc1cccs1)Nc1nc(-c2ccccn2)cs1 | i
CC(O)Cn1c(N2CCCC2)nc2c1c(=O)n(C)c(=O)n2C (centres undefined) | i
O=C(Cn1cccc(-c2nc(-c3ccccc3)no2)c1=O)Nc1ccccc1Br | i
Cc1ccccc1NC(=O)Nc1ccc(CC(N)=O)cc1 | i
CN(C)C(=O)c1nnn(-c2ccc(NC(=O)c3nc4ccccc4s3)cc2)n1 | i
O=C(CCn1ccc(=O)[nH]c1=O)N1CC(c2nc(-c3ccco3)no2)C1 | i
COc1cccc(CNC(=O)CSc2nnc3ccc(C(=O)Nc4cccc(F)c4)cn23)c1 | i
COc1ccccc1NC(=O)C1=Cc2ccccc2OC1 | i
COc1ccc2cccc(NC(=O)c3cccc(C#N)c3)c2n1 | i
CC(=O)Cn1c(=O)c2c(nc3n(C4CCCC4)c(C)cn23)n(C)c1=O | i
CCOc1ccccc1NC(=O)c1ccc(-c2nc3ccccc3s2)s1 | i
Cc1cc(C)c2c(CN3CCN(c4ccc(F)cc4)CC3)cc(=O)oc2c1 | i
O=C(c1ccc2ncsc2c1)N1CCN(CCn2ccnc2)CC1 | i

> COc1ccc(C(=O)CC2OC(=O)c3c2ccc(OC)c3OC)cc1OC (centres undefined)
  GIRK2 act: i

> Cc1ccc(N2CCCS2(=O)=O)cc1NC(=O)C(=O)NCC1CCN(C(=O)NC(C)(C)C)CC1
  GIRK2 act: i

> O=c1c2sccc2n(Cc2nc(-c3ccc(Cl)c(F)c3)no2)c(=O)n1Cc1ccccc1
  GIRK2 act: i

> COc1ccc(NC(=O)Nc2nc(CCC(=O)NCCc3ccccc3)cs2)cc1
  GIRK2 act: i

> CS(=O)(=O)C1CCN(C(=O)c2ccc3nsnc3c2)CC1
  GIRK2 act: i

> O=C(NCCOc1ccc(-c2ccc(F)cc2)nn1)c1ccc(Br)cc1
  GIRK2 act: i

> O=C(NCCOc1ccccc1)c1cc(OCc2ccccc2)no1
  GIRK2 act: i

> Cc1cc(C)nc(Nc2nc(CC(=O)NCc3ccccc3Cl)cs2)n1
  GIRK2 act: i

> COc1ccc(C(=O)NC2CC(=O)N(c3ccc(C)cc3)C2)c(OC)c1 (centres undefined)
  GIRK2 act: i

> O=C(NCC1CCN(S(=O)(=O)c2cccnc2)CC1)c1cc(=O)c2ccccc2o1
  GIRK2 act: i

> NC(=O)CSc1nnc2scc(-c3ccc(Cl)cc3)n12
  GIRK2 act: i

> O=C(c1ccco1)N1CCN(Cc2nc(C3CC3)cs2)CC1
  GIRK2 act: i

> CCOC(=O)N1CCN(C(c2ccc(F)cc2)c2sc3nc(CC)nn3c2O)CC1 (centres undefined)
  GIRK2 act: i

> CC(Oc1ccccc1)C(=O)N1CCCC(c2nnc(C(F)(F)F)o2)C1 (centres undefined)
  GIRK2 act: i

> COc1ccc(CC(=O)NCCN2CCN(c3ccccc3)CC2)cc1OC
  GIRK2 act: i

> CNC(=O)C1CCCN(c2nc3ccc(OC)cc3s2)C1 (centres undefined)
  GIRK2 act: i

> COC(=O)c1ccc(Oc2coc3c4c(ccc3c2=O)OCN(CCCN2CCOCC2)C4)cc1
  GIRK2 act: i

> CCc1ccc(S(=O)(=O)c2cnc(SCC(=O)Nc3cc(OC)cc(OC)c3)[nH]c2=O)cc1
  GIRK2 act: i

> CC(C)(C)OC(=O)N1CCN(C(=O)C2CCN(c3nc4ccccc4[nH]c3=O)CC2)CC1
  GIRK2 act: i

> Cc1nc(Nc2ccccn2)cc(N2CCN(C(=O)c3ccccc3C(F)(F)F)CC2)n1
  GIRK2 act: i

Given with values ahead of the structure: part of the list above.
GIRK2 act | structure
i | COc1ccc(S(=O)(=O)Nc2cnc(Oc3ccccc3F)nc2)cc1C
i | CCOc1ccc(-c2nc(CN(c3ccccc3C)S(=O)(=O)c3cccs3)c(C)o2)cc1OC
i | COC(=O)c1ccc(Oc2coc3c4c(ccc3c2=O)OCN(CCCN2CCOCC2)C4)cc1
i | COc1ccc(N2C(=O)N(c3ccc(C)c(C)c3)C3CS(=O)(=O)CC32)cc1 (centres undefined)
i | Cc1ccccc1NC(=O)Nc1ccc(CC(N)=O)cc1
i | Cc1cc(C)nc(Nc2nc(CC(=O)NCc3ccccc3Cl)cs2)n1
i | O=C(CCn1ccc(=O)[nH]c1=O)N1CC(c2nc(-c3ccco3)no2)C1

A different layout for 2 compounds above.
GIRK2 act	structure
i	CNC(=O)C1CCCN(c2nc3ccc(OC)cc3s2)C1 (centres undefined)
i	COC(=O)c1ccc(Oc2coc3c4c(ccc3c2=O)OCN(CCCN2CCOCC2)C4)cc1

A draw from above in order of formula weight, rising.
> O=C(c1ccco1)N1CCN(Cc2nc(C3CC3)cs2)CC1
  GIRK2 act: i

> NC(=O)CSc1nnc2scc(-c3ccc(Cl)cc3)n12
  GIRK2 act: i

> CC(Oc1ccccc1)C(=O)N1CCCC(c2nnc(C(F)(F)F)o2)C1 (centres undefined)
  GIRK2 act: i

> COc1ccc(CC(=O)NCCN2CCN(c3ccccc3)CC2)cc1OC
  GIRK2 act: i

Next entries follow.
> COc1cccc(S(=O)(=O)NC(Cc2ccccc2)C(=O)O)c1 (centres undefined)
  GIRK2 act: i

> O=S(=O)(Nc1cc(C(F)(F)F)ccc1N1CCCCC1)c1ccccc1
  GIRK2 act: i

> CCc1cc2c(NC(CCSC)C(=O)O)nc(C(C)C)nc2s1 (centres undefined)
  GIRK2 act: i

> CN1C(C(=O)Nc2ccccn2)=C(O)c2ccccc2S1(=O)=O
  GIRK2 act: i
